From PubChem BioAssay
HPGD inh: inhibitors of human 15-hydroxyprostaglandin dehydrogenase (HPGD); Potency, µM, without a hit: at the top dose activity change, negative = inhibition, hits mostly inhibitors; AID 894; P15428; purified HPGD, NADH fluorescence kinetic, PGE2 substrate; 4.3% of 150,000 active; active = well fitted inhibition curve with a large enough effect (not every such curve was filed as active); inconclusive = small, poorly fitted or top-dose-only effect, or another doubt; inactive = no such curve, though single readings can be large or run the other way;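 further: top concentration of the series not given in the record; plate controls included wells without enzyme; inactives centre near -10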
Target sequence (P15428 whole entry, looked up): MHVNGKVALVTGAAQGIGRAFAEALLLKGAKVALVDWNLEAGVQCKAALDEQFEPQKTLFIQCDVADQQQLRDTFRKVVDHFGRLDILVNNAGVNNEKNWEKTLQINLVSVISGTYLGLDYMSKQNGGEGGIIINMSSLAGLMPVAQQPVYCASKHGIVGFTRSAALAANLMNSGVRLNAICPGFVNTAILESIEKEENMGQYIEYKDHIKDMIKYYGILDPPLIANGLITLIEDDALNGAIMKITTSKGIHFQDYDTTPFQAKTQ
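20 nM HPGD preincubated 15 min at room temperature with compound in 50 mM Tris-HCl pH 8, 0.01% Tween 20. Started with 1 mM NAD+ and 30 uM prostaglandin E2; NADH fluorescence (360/450 nm) read 5 times over 30-s intervals, last minus first.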
Active calls of the source: *; ? = inconclusive. On the % scale 0 is the no-effect control and ±100 the full control effect; potency means the concentration at half of the fitted maximal effect. Some of the compounds tested, so the mix of outcomes need not match the whole.

Preview, two compounds:
SMILES | HPGD inh
N=C1S/C(=C\c2cccc3ccccc23)C(=O)N1c1ccc(F)cc1 | -11%
Cn1c(NC(=O)C[n+]2cc(-c3ccc(Cl)cc3)n3c2CCC3)cc(=O)n(C)c1=O | -1%

All compounds of this part (from the top)
SMILES | HPGD inh
N=C1S/C(=C\c2cccc3ccccc23)C(=O)N1c1ccc(F)cc1 | -11%
Cn1c(NC(=O)C[n+]2cc(-c3ccc(Cl)cc3)n3c2CCC3)cc(=O)n(C)c1=O | -1%
COc1ccc(CCN(C)Cc2ccc(OCc3ccccc3)c(OC)c2)cc1OC | -9%
O=C1CC(N2CCN(c3cccc(C(F)(F)F)c3)CC2)C(=O)N1c1ccccc1F (configuration not stated) | -14%
C=CCOc1c(Br)cc(/C=N/NC(=O)Cc2ccc(C(F)(F)F)cc2[N+](=O)[O-])cc1OC | -8%
COc1ccc(C(=O)/C=C/c2ccc(OC3CSC3)cc2)cc1 | -27%
COc1ccc(N2CCN(C(=O)CN(C)S(=O)(=O)c3cnc[nH]3)CC2)cc1 | 2%
CNc1oc(Cc2ccccc2)nc1S(=O)(=O)c1ccccc1 | -3%
S=C(NCc1cccs1)Nc1ccccc1Cl | 14µM*
COC(=O)C1=C(N)Oc2cc(C)oc(=O)c2C1c1cccnc1 (configuration not stated) | -5%
COCC(=O)Nc1ccccc1C(=O)NC(C)C | -9%
CC(C)CNC(=O)O | -14%
Cc1ccc(-n2c(C)c3c(C)nnc(C)c3c2C)cc1C | -13%
COc1cccc(-c2cc(N3C(=O)Nc4ccccc4N3O)n[nH]2)c1 | -7%
COc1ccc(CNC(=O)C(c2ccncc2)N(C(=O)Cc2cccs2)c2ccc(C)cc2)cc1 (configuration not stated) | 1%
CCOC(=O)c1cc(-c2ccc(F)cc2)n(CC(=O)N2CCCC2)c1C | -6%
c1ccc2oc(NC3=NCN(CC4CCCO4)CN3)nc2c1 (configuration not stated) | -11%
CCC(C(=O)OC)n1cnc2c(nnn2-c2ccc(OC)cc2)c1=O (configuration not stated) | -18%
COC(=O)c1ccc(Oc2coc3cc(OCc4ccc([N+](=O)[O-])cc4)ccc3c2=O)cc1 | -7%
Cc1ccc(C(=O)NCC(C)(C)N2CCOCC2)s1 | 2%
Cc1ccc(S(=O)(=O)c2nc(-c3ccco3)oc2NCC2CCCO2)cc1 (configuration not stated) | -17%
CC(=O)Nc1ccc(NC(=O)C(F)(F)F)cc1 | -4%
CCOC(=O)C1C(=O)C=C(/C=C/c2ccccc2)CC1c1ccc(Cl)cc1 (configuration not stated) | -16%
CCN(CC)c1ccc(/C=N/NC(=O)Cc2nnc(NC(=O)Nc3ccccc3)s2)cc1 | ?
CCn1c(SCC(=O)Nc2cc(OC)c(OC)c(OC)c2)nnc1-c1cccs1 | -10%
O=C(NCc1cccs1)c1ccc2c(c1)OCCO2 | 25µM*
COCCNC(=O)CN(Cc1ccc2c(c1)OCO2)C(=O)CCC(=O)Nc1nccs1 | 3%
Cc1cc(=O)[nH]c(SCC(=O)N2CCc3ccccc3C2)n1 | -22%
N#Cc1cnn(-c2nc(SCc3ccccc3)nc3sc4c(c23)CCCC4)c1N | -24%
COc1ccc(Cc2nnc(N/N=C/c3ccc(O)cc3)[nH]c2=O)cc1OC | -20%

Given field by field: 4 of the compounds above
structure: COCCNC(=O)CN(Cc1ccc2c(c1)OCO2)C(=O)CCC(=O)Nc1nccs1
  HPGD inh: 3%
structure: N#Cc1cnn(-c2nc(SCc3ccccc3)nc3sc4c(c23)CCCC4)c1N
  HPGD inh: -24%
structure: Cc1ccc(-n2c(C)c3c(C)nnc(C)c3c2C)cc1C
  HPGD inh: -13%
structure: O=C1CC(N2CCN(c3cccc(C(F)(F)F)c3)CC2)C(=O)N1c1ccccc1F (configuration not stated)
  HPGD inh: -14%

(cont.)
SMILES | HPGD inh
COC(=O)C1CCN(c2nc3ccccc3nc2C(C#N)C(=O)OCC(C)C)CC1 (configuration not stated) | -5%
Nc1ccc2cn[nH]c2c1 | -19%
CCOc1ccc(-n2c(SCC(=O)NCc3ccco3)nc3c(c2=O)SCC3)cc1 | -20%
C[C@@H]1C(c2cccc(Cl)c2)=NN(c2ccc(Br)cc2)[C@H]1C(=O)N1CCOC1=O | ?
CCC(NC(=O)NC1=NCCS1)(C(F)(F)F)C(F)(F)F | 5%
C1=Nc2c(NCc3ccccc3)ncnc2Oc2ccccc21 | 25µM*
Cc1sc2ncnc(SCc3ccco3)c2c1C | -29%
Cc1cc(N/N=C/c2c(O)ccc3ccccc23)nc(-c2ccccc2O)n1 | -20%
Cc1ccccc1-c1nc2sc3c(c2c(=O)n1N)CCCC3 | 25µM*
O=C(c1ccco1)N1CCN(S(=O)(=O)c2ccc(F)cc2)CC1 | -3%
O=C(NNC(=S)NCc1ccccc1)c1ccc2c(c1)OCO2 | -15%
Cc1cc(C(F)F)nn1CC(=O)NCc1ccc(Cl)cc1Cl | -8%
CCOC(=O)c1cnc2nc(C(F)(F)F)[nH]n2c1=O | -17%
Cc1nn(C(C)CC(=O)O)c(C)c1Br (configuration not stated) | -3%
c1cncc(-c2nc3cc4ccccc4cc3[nH]2)c1 | ?
C=CCc1cccc(/C=N/c2ncccc2O)c1O | -9%
CCn1c(-c2cc(-c3cccc(OC)c3)nc3ccccc23)n[nH]c1=S | ?
C=CCOc1cccc(C2/C(=C(/O)c3ccccc3)C(=O)C(=O)N2CCN2CCOCC2)c1 (configuration not stated) | -15%
O=C(CSc1nnc(-c2ccncc2)n1Cc1ccccc1)NC1CCCc2ccccc21 (configuration not stated) | -10%
CCSc1nnc(-c2ccc(S(=O)(=O)N3CCOCC3)cc2)n1CC1CCCO1 (configuration not stated) | ?
CCOc1ccc(OCCN(C)Cc2ccccc2)cc1 | -2%
COC(=O)C1C(=O)c2c([nH]c(C(=O)OCCSC)c2C)CC1C (configuration not stated) | -12%
CCOC(=O)Nc1ccc(NC(=O)c2c(OC)cccc2OC)cc1 | 0%
O=Cc1ccc(N2CCCC2)c(F)c1 | -15%
COc1nc(-c2ccccc2)ccc1-c1noc(-c2ccccc2F)n1 | ?
S=c1[nH]nc(COc2ccc(Cl)cc2)n1C1CCCCC1 | 14µM*
COc1ccc(/C=C/c2c([N+](=O)[O-])c(=O)n(C)c(=O)n2C)cc1OC | -6%
CCN(CC(=O)Nc1cccc(Br)c1)Cc1nc2ccccc2c(=O)[nH]1 | -3%
CCCCCn1c(=O)[nH]c2cc(C(=O)NCCc3ccc(OC)c(OC)c3)ccc2c1=O | -14%
CC1(C)N=C(c2ccc(Cl)cc2Cl)C(=O)N1 | -6%

(next part)
SMILES | HPGD inh
COC(=O)c1sc(N)c(C(=O)OC)c1COC(=O)CCNS(=O)(=O)c1ccc(C)cc1 | -21%
CN(C)CCOc1ncnc2c1oc1ccccc12 | -1%
Cc1ccc(NC(=O)CN2C(=O)N/C(=C/c3cccn3-c3ccc(C(=O)O)cc3)C2=O)cc1 | 25µM*
Cc1nc2c(oc3ccccc32)c(=O)o1 | -15%
CC(=O)NC(c1ccco1)c1ccc2cccnc2c1O (configuration not stated) | -1%
COc1ccc(-c2nc(C#N)c(N3CCN(c4cccc(Cl)c4)CC3)o2)cc1OC | ?
CC(C)(CNC(=S)NCCc1ccccc1)CNC(=S)NCCc1ccccc1 | -3%
Cc1ccc(C(=O)O/N=C/C2=C(Cl)c3ccccc3CC2)cc1 | -23%
Cc1ccnc(SCC(=O)Nc2sc3c(c2C#N)CCCC3)n1 | 1%
CCOC(=O)CSc1nc(C)c2cc(OC)ccc2n1 | ?
CCCCOc1ccc(/C(O)=C2/C(=O)C(=O)N(CCCOC)C2c2ccncc2)cc1C (configuration not stated) | -4%
CCCCn1c(SCC(N)=O)nnc1-c1ccco1 | -7%
CCOC(=O)N1CCC(N(CCOC)C(=O)Nc2ccc(CC)cc2)CC1 | 1%
Cc1ccc(-n2c(C)nc3c(cnn3-c3ccc(F)cc3)c2=O)cc1 | -5%
COC1OC(COC(=O)CNC(=O)OC(C)(C)C)C(O)C(O)C1O (configuration not stated) | 4%
CC(C)CNC(=O)c1ccc(Cl)c(Cl)c1 | 22µM*
C[C@H](Nc1ncnc2sc3c(c12)CCC3)C(=O)O | -8%
CCOC(=O)c1[nH]c(C)c(C(=O)Nc2ccc3c(c2)OCCO3)c1C | -16%
Cn1c(=O)c2[nH]c(CCS)nc2n(C)c1=O | -2%
COCCCn1cnc2c(c1=O)c1nc3ccccc3nc1n2-c1ccccc1 | ?
COC(=O)c1ccccc1NC(=O)c1noc2c1CCCC2 | -18%
Cc1ccc(S(=O)(=O)N(CC(=O)N2CCc3ccccc3C2)c2ccc(Cl)c(Cl)c2)cc1 | -7%
COc1cc(C(=O)Nc2ccccn2)cc(OC)c1OC | -1%
COc1ccc(CNC(=O)CSc2nnc3c(Cl)cc(C(F)(F)F)cn23)cc1OC | -13%
COc1ccc(N2CCN(c3oc(COc4ccccc4Cl)nc3C#N)CC2)cc1 | -14%
CCOC(=O)Cc1csc(NC(=O)CCc2ccc(S(=O)(=O)N3CCOCC3)cc2)n1 | 0%
O=C(CN1CCOCC1)Nc1ccc(-c2nc3ccccc3[nH]2)cc1 | ?
COC(=O)c1ccc(NC(=O)CN(c2ccc(OC)cc2)S(C)(=O)=O)cc1 | -15%
Cc1ccc(S(=O)(=O)N/N=C/c2cccc([N+](=O)[O-])c2)cc1 | -3%
O=C(NCc1ccccn1)C(C(=O)c1ccc(F)cc1)n1ccccc1=O (configuration not stated) | -7%

Following part:
SMILES | HPGD inh
CCOC(=O)CSC1=NC(=O)/C(=C\c2ccc(Cl)cc2)S1 | 2.2µM*
COc1ccccc1-c1coc2cc(OC(=O)/C=C/c3ccccc3)ccc2c1=O | -7%
Cc1cc(Cl)ccc1OCC(=O)NCCC(=O)O | -4%
COc1ccc(CCNC(=O)CNS(=O)(=O)c2cccs2)cc1OC | -5%
Cc1ccc(N2C(=O)[C@@H]3C(C(=O)CCN4C(=O)c5ccccc5C4=O)=NN[C@@H]3C2=O)cc1 | -16%
Fc1ccccc1Cn1nnc2c(-n3ccnc3)ncnc21 | -25%
COc1cc2nc(SCc3ccc(C(F)(F)F)cc3)n(Cc3cccs3)c(=N)c2cc1OC | -12%
CC1=CC2=C(OC1N(C)C)c1cccc3cccc(c13)C2=O (configuration not stated) | -12%
Cc1ccc(OCCOCCN(C)C)c(Cl)c1 | 4%
CCOC(=O)CSc1nc2ccc(C)cc2[nH]1 | -5%
O=C(CSc1nnc2scc(-c3ccccc3)n12)NCc1ccc2c(c1)OCO2 | -3%
O=C1C2C3C=CC(C2C(=O)N1C1CCCCC1)C1C2C(=O)N(C4CCCCC4)C(=O)C2C31 (configuration not stated) | 3%
Cc1cc(C(F)(F)F)nc(SCC(=O)c2cccc([N+](=O)[O-])c2)n1 | -6%
Cc1cc(SCC(=O)c2cccs2)nc2ccccc12 | 4.5µM*
Cc1c(NC(=O)C(C)OC(=O)c2cc(-c3cccc4ccccc34)nc3ccccc23)c(=O)n(-c2ccccc2)n1C (configuration not stated) | ?
Nc1nnc(SCC(=O)c2ccccc2)s1 | -17%
Cc1cccc(OC(=O)CN2C(=O)C3C4CCC(C4)C3C2=O)c1C (configuration not stated) | 4%
Cc1ccc(C2CN(C)C3(C(=O)Nc4ccccc43)C23COc2ccccc2C3=O)cc1 (configuration not stated) | -12%
CCOC(=O)c1c(N)n(C2CC(C)(C)NC(C)(C)C2)c2nc3ccccc3nc12 | ?
O=C1NC2(CCCC2)N=C1c1ccc(F)cc1 | -1%
Cc1cccc(C(=O)Oc2csc(=S)n2C(=O)c2cccc(C)c2)c1 | 14µM*
CC1CCN(c2nc3ccccc3nc2C(C#N)C(=O)OC2CCCCC2)CC1 (configuration not stated) | -9%
O=C(Nc1nc2ccccc2n1CCOc1ccc(Cl)cc1)c1ccco1 | ?
CC(=O)c1cccc(NC(=O)CN(c2ccccc2F)S(C)(=O)=O)c1 | -7%
COc1cc2c(cc1NC(C)=O)CCCC2 | -6%
CCCC1C(c2ccccc2)C(C#N)(C#N)C2(C#N)CC1(N)NC2=O (configuration not stated) | 0%
COc1cc(C(=O)Nc2nc(N)n(-c3ccccc3)n2)cc(OC)c1OC | -2%
CCOc1ccc(-c2nnn(CC(=O)c3ccc4c(c3)OCCO4)n2)cc1 | -25%
CCOCCCNC(=O)c1ccc(OC(C)=O)cc1 | -28%
Clc1ccc(NCc2nncn2-c2ccccc2)cc1 | -1%

(listing goes on)
SMILES | HPGD inh
COc1ccc(C)cc1NC(=O)C(Sc1ccccc1)c1ccccc1 (configuration not stated) | -3%
COc1ccc(N2CC(C(=O)O)CC2=O)cc1 (configuration not stated) | 3%
CCCN(CCC)C(C(=O)Nc1cccc(OC)c1)c1ccccc1 (configuration not stated) | -12%
CCCCCCCCCCCCCCCC(=O)O[C@H](CC(=O)O)C[N+](C)(C)C | -18%
CC(C(=O)NC1=NCCS1)N1C(=O)c2ccccc2C1=O (configuration not stated) | -8%
COc1ccc(SCC(=O)c2cc(C)c(OC(=S)N(C)C)c(C)c2)cc1 | -9%
COC(=O)Cn1c(=NC(=O)c2ccc(Cl)s2)sc2cc(F)ccc21 | ?
CCOc1ccccc1NC(=O)C1CC(=O)n2ncnc2N1 (configuration not stated) | -2%
O=[N+]([O-])c1ccc(Oc2ccc(-c3cnc4ccccc4n3)cc2[N+](=O)[O-])cc1 | -10%
